Compound activity as filed in PubChem.
AID504770 = E. coli YBA685 growth inhibition, screen for V. cholerae RctB inhibitors. E. coli YBA685 rctB-dependent plasmid, OD600 growth, 3 h; stronger effect = lower value. z-score (no concentration beside the values). 130,000 tested, 0.27% active. AID 504770;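 active means z-score under -2 on both plates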;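 further: wells of about 30 µL received 100 nL stock; score is relative to mean and SD of the test wells; the first replicate is given; strong numbers were not always called active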
Ba CapD inh = blocks the Bacillus anthracis CapD enzyme; purified CapD enzyme, fluorescence intensity read-out; stronger effect = lower value; some hits fall short of the stated cut; 140,000 tested, 0.23% active; AID 492967; z-score (test concentration not listed);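 active means z-score under -4 in either of two replicates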;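 further: stock transfer was 100 nL into about 40 µL; score is relative to mean and spread of the plate; one replicate is shown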
* hit, by the source's call; nt = not tested or not shown; & = joins results of further samples.

The line under a structure holds: AID504770, Ba CapD inh
CC(C)CSc1nc(N2CCOCC2)c2c(c1C#N)CC(C)(C)OC2
 : nt, -0.365
C=CCc1cc(/C=C2\C(=O)NC(=S)N(c3ccccc3)C2=O)cc(OC)c1OCC(=O)O
 : nt, -0.805
O=C(c1ccc(CSc2ccccn2)o1)N1CCC2(CC1)C(=O)NCN2c1ccccc1
 : nt, 0.32
Cc1ccc2c(c1)C(C)(C)C1(C)N(Cc3ccccc3)C(=O)CN21 (centres undefined)
 : 1.5, 0.615
O=C(CN1CCOCC1)N(c1ccccc1)c1ccc2ccccc2c1
 : -0.4, nt
Cc1cc(/C=N/n2cnnc2)c(C)n1-c1ccc(C(=O)O)cc1
 : -0.65, -1.64
Cc1ccc(C)c(C(=O)COC(=O)/C=C/c2ccccc2Cl)c1
 : 0.3, 0.745
CCOC(=O)c1c(C)c(-c2ccccc2)n(CC(=O)N(CC)CC)c1C
 : -0.2, -0.04
NNC(=S)NC1CC2C=CC1C2 (centres undefined)
 : nt, 0.13
Cc1cccc(NC(=O)Cn2nnc(C(=O)NCc3ccc4c(c3)OCO4)c2N)c1C
 : 2.8, nt
CC(C)c1ccc(NC(=O)C(c2ccccc2)N(C)C)cc1 (centres undefined)
 : -0.5, 0.315
Fc1cccc(NC(=S)NN=C2CCCCCC2)c1
 : nt, -0.145
COc1ccc(-n2ncc3c(Nc4cc(C)ccc4C)ncnc32)cc1
 : nt, 0.215
CCOC(=O)c1cnc2c(c(C)nn2C)c1Oc1ccc(OC)cc1
 : nt, 0.12
NS(=O)(=O)c1ccc(NC(=O)C2CC2)cc1
 : 1.85, 0.47
CCCN(CCC)Cc1nnc(-c2cccc(Br)c2)o1
 : -0.55, -0.44
COC(=O)c1ccc(-c2nnco2)cc1
 : -0.65, 0.12
O=C(CSc1nc2ccccc2n1S(=O)(=O)c1cccc([N+](=O)[O-])c1)NCc1ccccc1
 : nt, -0.28
CC(C)(C)OC(=O)C(Cc1c[nH]c2ccccc12)NC(=O)OCc1ccccc1SC(F)(F)F (centres undefined)
 : nt, -0.955
CCn1c(CNC(=O)c2cccs2)nnc1SCC(=O)NO
 : 0.35, nt
CC(C)n1nccc1N
 : 1, nt
CCOC(=O)N(c1ccc(OC)cc1)P1(=S)OCC(C)O1 (centres undefined)
 : nt, 0.33
CSC1=NCCCN1C(=O)c1c(-c2c(F)cccc2Cl)noc1C
 : nt, -0.565
CCCc1nnc(NC(=O)CN2C(=O)c3ccccc3S2(=O)=O)s1
 : 0.85, -0.22
Cc1ncc(CO)c2cc(C(=O)Nc3ccc(I)cc3)c(=O)oc12
 : -0.7, -0.4
O=C(OCC#Cc1ccc(-c2ccccn2)s1)c1cccs1
 : 0.15, 5.72
CCN(CC)c1ccc(C(=O)OCC(=O)Nc2ccc(F)cc2F)cc1
 : -1.75, -0.915
O=C(NC1=NCCS1)c1cc2nc(Nc3ccccc3)sc2s1
 : 0.05, nt
O=C(NCc1ccccn1)c1ccc(CSCc2cccc(Cl)c2)o1
 : -0.55, -0.08
COc1ccccc1CN(C(=O)Nc1ccc(F)cc1F)c1ccc2[nH]c(C(C)(C)C)cc2c1
 : nt, -0.135
O=C1Nc2ccc(S(=O)(=O)N3CCCC3C(=O)O)c3cccc1c23 (centres undefined)
 : -0.5, -0.43
O=C(NCCSCc1ccco1)c1cncc(Br)c1
 : nt, -0.085
CCn1cc(C2CC(=O)N(c3ccccc3)C2=O)c2ccccc21 (centres undefined)
 : -0.35, 0.38
CC(=O)Nc1ccc(NC(=O)COc2ccc(C)c(C)c2)cc1
 : -0.75, 0.16
CCOC(=O)C1CCN(c2ncnc3c2oc2ccccc23)CC1
 : 0.8, nt
O/N=C/c1nc(-c2ccc(Cl)cc2)n2ccccc12
 : 0.2, nt
Cc1cc2occ(CC(=O)O)c2cc1C(C)C
 : -0.05, nt
O=C(Cc1cccs1)Nc1c[nH]c(=O)[nH]c1=O
 : -0.65, 0.28
CCc1[nH]c(=O)cc2cc(OC)c(OC)cc12
 : nt, -0.73
Cc1ccc(S(=O)(=O)N2CCCCC2C(=O)NC(C)c2ccc3c(c2)OCCO3)cc1 (centres undefined)
 : -2.1*, nt
CCC12CN3CC(CC)(CN(C1)C(=O)c1ccccc1C3=O)C2=O
 : 0, -0.765
CCN(CC)C(=O)C1=C(C)N=C2SC(C#N)=C(N)N2C1c1ccc(Cl)cc1 (centres undefined)
 : 1.65, nt
CC(=O)N(C(C)=O)c1cc(C(=O)O)ccc1Sc1ccc(Br)cc1
 : 0.8, -10.5*
CC12CCC(C(=O)N3NC(=O)[C@@H](c4ccccc4)[C@@H]3c3ccccc3)(OC1=O)C2(C)C (some centres undefined)
 : 1.1, -0.39
O=c1/c(=C\c2cccc(Oc3ccc(C(F)(F)F)cc3[N+](=O)[O-])c2)sc2nc3ccccc3n12
 : nt, -0.255
Cc1ccccc1OCc1nnc(SCC(N)=O)n1C
 : -0.1, 0.435
COc1ccccc1CC(=O)N1CCN(S(=O)(=O)c2ccccc2C(F)(F)F)CC1
 : -0.15, nt
Cc1cc(C)n(CCCNC(=O)c2ccc(S(=O)(=O)NCc3ccco3)cc2)n1
 : -1.5, nt
CC1=NNC(=O)C1CC(=O)N/N=C/c1sccc1C (centres undefined)
 : -0.4, -0.995
N#Cc1cccc(NC(=O)CNc2ccc3ccccc3c2)c1
 : -0.95, nt
c1ccc(N2CCN(Cc3cn4ccccc4n3)CC2)nc1
 : -1.05, 0.635
CC1CCCCN1CCCNC(=O)Nc1ccc(Cl)cc1 (centres undefined)
 : -0.4, 0.515
CS(=O)(=O)N(Cc1ccccc1Cl)c1ccc(C(=O)Nc2ccc3c(c2)OCO3)cc1
 : -0.15, 0.285
CCOC(=O)N1CCN(C(=O)c2ccc(N3CC4CC(C3)c3cccc(=O)n3C4)c(NC(=O)c3ccncc3)c2)CC1 (centres undefined)
 : nt, -0.815
O=C(c1cccc(N2CCCS2(=O)=O)c1)N1CCN(c2ccccc2)CC1
 : -0.8, 0.475
CC(C)CNc1nc(-c2ccccc2)cs1
 : -0.8, nt
Oc1[nH]c2ccccc2c1N=NC1=NCCC1
 : -1.05, nt
C[C@H]1c2ccoc2CC2[C@H]1CCC1[C@@](C)(CC(=O)O)CCC[C@]21C (some centres undefined)
 : -0.2, 0.25
COC(=O)c1sccc1-c1ccc(/C=N/OC(=O)c2ccccc2)o1
 : nt, 15.4
Cc1nn(-c2ccccc2)c(=O)c2ccccc12
 : -0.7, nt

Remaining list, next part
The line under a structure holds: AID504770, Ba CapD inh
CCn1cc(C(=O)NC)c(=O)c2ccc(C)nc21
 : -0.5, nt
CC1(C)C(=O)Nc2ccccc2N1C(=O)COC(=O)CSc1nnc(-c2ccc(Cl)cc2)o1
 : -0.9, nt
Clc1ccc(-c2noc(CSC3=NCCN3)n2)cc1
 : -0.05, 0.115
Cc1[nH]c2c(c1CC(Cl)(Cl)Cl)C(=O)CC(C)(C)C2
 : nt, -0.03
COc1ccc(Cl)cc1NC(=O)CSc1nc2ccc(C)cc2[nH]1
 : nt, 0.23
Cc1cccc(C)c1OC(=O)C1=CN2CCS(=O)(=O)N=C2C=C1
 : 0, nt
COc1cc(OC)nc(N2CCN(C(=O)c3cc(OC)c(OC)c(OC)c3)CC2)n1
 : nt, -0.095
CCOc1ccc(-c2nnc(N(C(=O)C3CCC3)C(C)C)s2)cc1
 : 0.4, nt
COc1ccc(Cc2nc(C(=O)Nc3ccc(Cl)cc3)cs2)cc1
 : nt, -0.64
COc1cccc(CN(C)CC(=O)Nc2c(C#N)c(C)c(C)n2Cc2ccco2)c1OC
 : -0.3, nt
CN(C(=O)Nc1ccc(Cl)cc1)n1cnc2ccccc2c1=O
 : -0.55, 0.06
COc1ccc(NC(=O)C(=O)/C=C(\O)c2ccccc2)cc1
 : 2.95, -1.61
CC(C)(C)n1ncc(Cl)c(Cl)c1=O
 : 0.45, 0.185
CCC(=O)Nc1nc2c(c3c1c(=O)oc1ccccc13)CCCC2
 : nt, 0.69
CC(C)CN(C(=O)COc1ccc(C#N)cc1)c1c(N)n(CC(C)C)c(=O)[nH]c1=O
 : -0.2, nt
N#CC1(C#N)[C@@H]2c3ccccc3C=CN2[C@@H](C(=O)c2cccs2)[C@@H]1c1cccs1
 : nt, 5.77
CC(NC(=O)c1ccc(F)cc1)C(c1cccs1)N1CCOCC1 (centres undefined)
 : 0.6, -0.515
O=C(c1ccc(Cl)cc1)c1cnc2ncccn12
 : -1.2, nt
CCOc1ccc(S(=O)(=O)N2CCC(C(=O)N(c3ccccc3)c3nc(C)cs3)CC2)cc1
 : 0.85, nt
COC(CNC(=O)c1ccc2c(=O)n(Cc3ccco3)c(=S)[nH]c2c1)OC
 : 0.25, -0.575
CCCCOc1ccc(C2C(N3C(=O)c4ccccc4C3=O)C(=O)N2c2ccc(Br)cc2)cc1 (centres undefined)
 : nt, -0.125
CCOc1ccc2nc(N3CCC(C(=O)NCCOC)CC3)sc2c1
 : 0.4, -0.22
COCCc1ccc(OCC(O)CNC(C)C)cc1 (centres undefined)
 : 0.1, 0.935&0.415
CCCCCCc1cc2cc(-c3nc(-c4ccc(Cl)cc4)cs3)c(=Nc3ccccc3)oc2cc1O
 : nt, 0.025
COC(=O)CSc1cc2c3c(c(C(=O)OC)sc3c1)NC(=O)CS2
 : -0.5, 2.14
N#CC1(NC(=O)COc2ccc3ccccc3c2)CCCC1
 : 0.1, nt
O=C(COc1coc(CN2CCc3ccccc3C2)cc1=O)N1CCCC1
 : -0.1, nt
Cc1cc(S(=O)(=O)NN)c(Cl)cc1Cl
 : 0.15, -0.295
CC1(C)C2CCC1(CS(=O)(=O)N1CCCC1)C(=O)C2 (centres undefined)
 : -0.3, nt
O=c1c2ccccc2c(=O)n2n1Cc1ccccc1C2
 : 0.2, -0.835
O=C(COC(=O)c1ccco1)N=c1sccn1Cc1ccccc1Cl
 : 0.5, nt
Cc1noc(C)c1COc1cccc(C(=O)OCC(=O)c2ccc[nH]2)c1
 : 0.6, nt
CC(=O)N1CCC(N(C(=O)CCC(=O)NCc2ccccn2)C2CC2)CC1
 : nt, 4.99
CCOC(=O)C(NC(=O)c1cccc(F)c1)(Nc1sc2c(c1C#N)CCCC2)C(F)(F)F (centres undefined)
 : nt, -0.015
CCOC(=O)CSc1n[nH]c(CN2c3ccccc3Sc3ccccc32)n1
 : 0.6, 0.23
CSCC(=O)OCc1cc(=O)oc2cc3c(cc12)CCC3
 : 0.6, nt
C(=N/N1CCN(c2ccccc2)CC1)/c1ccccc1
 : -0.7, -0.555
COC(=O)C(C(=O)N1CCCc2ccccc21)C1CCCC1 (centres undefined)
 : -0.35, 0.06
OC(CNC1CCN(Cc2ccccc2)CC1)CSc1ccc(F)cc1 (centres undefined)
 : 0.1, -0.47
COc1ccc(-c2nc(CN3CCCC3c3cccs3)cs2)cc1OC (centres undefined)
 : -0.35, nt
CC(C)(C)S(=O)(=O)/C(C#N)=C/Nc1ccc(OC(F)(F)F)cc1
 : -0.85, 0.135
Cn1nc(C(F)(F)F)cc1OC(=O)c1cccs1
 : -0.45, -0.38
Cc1ccc(C(=O)c2cc(F)c(N3CCOCC3)cc2Cl)cc1C
 : -0.15, -0.205
Cc1ccc(S(=O)(=O)N(CC(O)Cn2c3ccc(Cl)cc3c3cc(Cl)ccc32)c2ccc(F)cc2)cc1 (centres undefined)
 : nt, -0.305
CCOCCOC(=O)C1=C(C)NC2=C(C(=O)CC(c3ccc(Cl)cc3)C2)C1c1cc2c(cc1Cl)OCO2 (centres undefined)
 : nt, 9.32
O=C(NCc1ccccc1)c1ccc(S(=O)(=O)C(F)F)cc1
 : 0.85, nt
NC(=O)c1cc(Cl)c(C(=O)O)[nH]c1=O
 : 1, 13.5
CS(=O)(=O)c1ncc(Cl)c(C(=O)N(Cc2ccccc2)c2ccccn2)n1
 : 1.25, 9.96
CC(c1ccccc1)C1CC(=O)N(Cc2ccccc2)C1=O (centres undefined)
 : 1.2, -0.285
COc1cc(OC)c(C(=O)OCCOc2ccccc2C)cc1OC
 : 0.1, nt
COc1ccc(C(=O)CSc2nc(-c3cccs3)ccc2C#N)cc1OC
 : nt, 3.55
Cc1ccc(C2/C(=C(\O)c3ccc(F)cc3)C(=O)C(=O)N2CCN2CCOCC2)cc1 (centres undefined)
 : nt, -0.26
CCCn1c(C(Cc2ccccc2)NC(C)=O)nc2ccccc21 (centres undefined)
 : -1.1, -0.215
CC(C)n1c(=O)c2oc3ccccc3c2n(Cc2ccccc2)c1=O
 : -1.05, 8.79
COc1cccc(/C=N/NC(=O)Cc2c[nH]c3ccccc23)c1
 : nt, -0.575
N/C(=N\OC(=O)c1ccc(Br)o1)c1ccncc1
 : -2.4*, 0.17
COc1ccc(C2Nc3ccccc3C(=O)N2Cc2ccco2)cc1CN1C(=O)c2ccccc2C1=O (centres undefined)
 : nt, 1.52
Cc1cccc(-n2c(SCc3csc(C)n3)nnc2-c2cccc(S(=O)(=O)N(C)C)c2)c1
 : -0.55, nt
COc1ccc(C(CC(=O)NCc2ccco2)Sc2n[nH]c(-c3ccc(Cl)cc3)n2)cc1 (centres undefined)
 : -0.35, -0.3
O=C(COCc1cc2cccc3c2n(c1=O)CCC3)NCC1CCCO1 (centres undefined)
 : nt, 7.13
O=C(CCS(=O)(=O)c1ccc(F)cc1)Nc1ccccc1
 : -0.6, nt
